D2 PAM: positive allosteric modulators of human D2 dopamine receptor; DiscoveRx D2 beta-arrestin cells, luminescence, 90 min; 100% = 57 uM dopamine signal; potentiation, % (test concentration not listed); 0.23% of 360,000 active; AID 624464; P14416; active = potentiation of 50% or more; inconclusive = 30% to 50%; inactive = 30% or less;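 note: compound concentration not given in the record; tested on top of an EC20 dose of dopamine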
Target sequence (P14416 whole entry, looked up): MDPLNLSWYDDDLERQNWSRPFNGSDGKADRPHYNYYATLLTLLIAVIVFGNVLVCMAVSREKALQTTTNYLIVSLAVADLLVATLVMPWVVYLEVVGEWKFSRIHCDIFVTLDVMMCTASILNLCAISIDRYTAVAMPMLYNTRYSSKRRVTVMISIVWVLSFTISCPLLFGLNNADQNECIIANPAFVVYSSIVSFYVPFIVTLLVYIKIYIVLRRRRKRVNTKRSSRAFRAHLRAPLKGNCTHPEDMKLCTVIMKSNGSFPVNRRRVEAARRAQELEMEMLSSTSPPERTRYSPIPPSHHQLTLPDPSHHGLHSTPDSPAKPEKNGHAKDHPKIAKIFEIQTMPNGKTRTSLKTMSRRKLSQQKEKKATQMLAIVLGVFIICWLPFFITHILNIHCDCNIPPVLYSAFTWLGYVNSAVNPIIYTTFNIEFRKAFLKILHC
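PathHunter D2 cells, attached overnight at 37 deg C, received compound in DMSO plus dopamine at EC20 (50 nM final) for 90 min at 37 deg C. Beta-arrestin recruitment was read as luminescence after 1 h with detection reagent at ambient temperature.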
D2 agonist: activates the human D2 dopamine receptor | P14416 | 0.084% of 360,000 active | activation, % (test concentration not listed) | DiscoveRx PathHunter D2 beta-arrestin, luminescence, 90 min; 100% = 57 uM dopamine signal | AID 624465; in the data active = activation above about 40%; inconclusive = about 15% to 40%; inactive = below about 15%; note: compound concentration not given in the record; the text of the record calls up to 30% inactive
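DiscoveRx PathHunter D2 beta-arrestin cells (2,100/well) attached overnight, then compound-stimulated 90 min at 37 C in HBSS/10 mM HEPES/0.1% Tween-20 buffer; beta-galactosidase complementation read by luminescence after 1 h at ambient temperature. Dopamine 57 uM final (EC100) as control.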
gsp antag: antagonists of gsp mutant (McCune-Albright syndrome) | gsp-mutant cells, cAMP HTRF, 30 min; control for the full effect not named in the record | Potency, µM (series often up to 76.9 µM), without a hit: top-dose activity change, negative = inhibition, actives largely listed as inhibitors | 0.4% of 340,000 active | AID 624288; active = falling curve of any shape with a large fitted effect; inconclusive = falling curve, mostly with a smaller effect; inactive = flat or rising curve; cell line not stated here;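 note: intracellular cAMP measured with PDE inhibitor Ro 20-1724 present during compound exposure; potency is the fitted concentration of half-maximal effect; % is set by controls: 0 for no effect and ±100 for the full control effect; nearly all actives have a fitted effect of over 65% in size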
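Cells in G418 medium, seeded 16-24 h, 37C; buffer exchange to DPBS + 1 mM CaCl2, 0.5 mM MgCl2, 0.05% BSA; cpds in DMSO + […] (300 uM stock), 30 min 37C; HTRF cAMP detection.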
gsp agonist: activates gsp, the McCune-Albright syndrome mutation. gsp mutant cells, cAMP HTRF, 30 min; control for the full effect not named in the record. Potency, µM (series often up to 76.9 µM), inactives show top-dose activation (cAMP increase), actives largely listed as activators. 0.13% of 340,000 active. AID 624287; active = well fitted activation curve with a large enough effect; inconclusive = small, poorly fitted or top-dose-only effect, or another doubt; inactive = no such curve, though single readings can be large or run the other way; cell line not stated here;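 note: phosphodiesterase inhibitor Ro 20-1724 added with compounds to block cAMP breakdown; potency is the fitted concentration of half-maximal effect; nearly all actives have a fitted effect of over 60% in size; about a fifth of the inactives were tested at one dose only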
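Cells in DMEM/10% FBS with G418 were pretreated with compounds in DMSO plus […] (300 uM stock) for 30 min at 37C. cAMP was measured by HTRF (cAMP-d2 plus anti-cAMP antibody-K) after 30 min at room temperature.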
Six1-Eya2 blk: Six1/Eya2 interaction inhibition; Q15475+O00167; AlphaScreen GST-Six1/His-Eya2 binding, biochemical; stronger effect = lower value; control for the full effect not named in the record; activity change, % (no concentration beside the values); 0.56% of 360,000 active; AID 651725; in the data active = activity change below about -65%; inconclusive = about -30% to -65%; inactive = above about -30%; note: % is set by controls: 0 for no effect and ±100 for the full control effect; compound concentration not given in the record
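GST-Six1 + His-Eya2 (5X stock: 250/500 nM); Tris pH 8.0, 300 mM NaCl, 0.05% BSA, 0.02% Tween 20; GSH donor/Ni acceptor beads; 1 h 37 °C dark; AlphaScreen readout.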
CtBP-E1A inh: inhibitors of CtBP/E1A interaction. AlphaScreen GST-E1A/His-CtBP binding, 1536-well; stronger effect = lower value; control for the full effect not named in the record. activity change, % (no concentration beside the values). 0.49% of 340,000 active. AID 651724; in the data active means activity change below about -65%; inconclusive means about -30% to -65%; inactive means above about -30%; note: % is set by controls: 0 for no effect and ±100 for the full control effect; compound concentration not given in the record
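Steps: dispense buffer (Tris pH 8.0, NaCl 300 mM, TCEP 1 mM, BSA, Tween 20); add 5X protein mix (GST-E1A, His-CtBP, 125 nM each); pin 23 nL compound; 2 h at 37 °C, dark; add 5X beads (50 ug/mL); 1 h; read.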
The depositor's hits bear a star; ? = inconclusive; · = not tested or not shown; [ ] = another dose, or the depositor's remark.

Screens in order – D2 PAM, D2 agonist, gsp antag, gsp agonist, Six1-Eya2 blk, CtBP-E1A inh
CCC(C)N(C(=O)COC(=O)COc1c(C)cc(C)cc1C)C1CCS(=O)(=O)C1 (configuration not stated)
    -8.5, -0.7, -6.4%, 0.9%, -1.6, 4.9
Cc1cc(C(=O)OCC(=O)NCCN2C(=O)CSC2=O)ccc1[N+](=O)[O-]
    -1.1, 6.5, -10.2%, -23.9%, -3.4, ·
COC(=O)c1ccc(-c2ccc(/C=N/NC(=O)Cc3nnc(N)s3)o2)cc1
    1.7, -7.6, -20.3%, 11.2%[15.4 µM], -16.8, -15.8
O=C(COC(=O)c1ccc[nH]c1=O)NC1CCCCC1
    -8.7, -2.5, 5.5%, -0.9%, 19.9, 7.7
COc1ccc(CNC(=O)C2CCC(=O)N(CCCN3CCCC3=O)C2)cc1 (configuration not stated)
    -27.1, -6.0, -0.4%, -20.5%, -0.5, 1.3
OC(COc1ccc2ccccc2c1)Cn1ccnc1 (configuration not stated)
    3.8, -2.5, 2.4%, -5.6%, -1.6, 1.6
CCOc1ccc(N2CC(NS(=O)(=O)c3cccs3)CC2=O)cc1 (configuration not stated)
    -11.2, -2.8, -11.6%, -1.0%, 8.4, 4.1
COc1ccc2[nH]cc(CCNC(C)=O)c2c1
    -10.4, -4.5, 21.5%, ·, 1.9, 6.5
O=C(NC12CC3CC(CC(C3)C1)C2)N(Cc1ccccc1)Cc1ccncc1
    -5.3, 0.4, -15.5%, -9.9%, -9.8, -1.6
Cc1c(-c2ccccc2)nc2ccccc2c1C(=O)O
    -3.5, 1.6, 2.8%, 13.6%, 7.8, 9.9
CC(C)c1ccc(N=C2NN=C(c3cccs3)CS2)cc1
    -11.5, -0.5, ·, 5.7%[15.4 µM], -18.1, 2.8
CC(=O)N1CCC2(CC1)C/C(=N\NC(=S)Nc1ccccc1C)c1cc(O)ccc1O2
    -3.0, -1.3, -25.4%, 3.4%, -8.1, -11.0
CCc1cccc(CC)c1NC(=O)C(CC)Sc1nc2ccsc2c(=O)n1CCC(=O)O (configuration not stated)
    -12.5, -0.2, ·, ?, 3.9, 1.9
C[C@@H]1[C@H](O)C[C@@]23COC(=O)C2=CCC[C@@H]3[C@@]1(C)CC/C(=C/CO)CO
    -3.0, -4.4, -4.2%, -19.7%, -1.9, -1.3
COc1ccccc1N1CCN(CCCCN2C(=O)c3ccccc3C2=O)CC1
    -34.7, -6.9, -2.9%, ·, -4.1, -2.7
CCOc1ccccc1C(=O)Nc1ccc(S(=O)(=O)N2CCN(C)CC2)cc1
    -1.9, -1.9, -3.9%, -4.4%, -6.1, 7.1
Clc1nnc(N/N=C/c2ccccc2)c2ccccc12
    -19.4, -3.6, -17.7%, 15.7%, ?, ?
NC(=O)N/N=C/c1sc(N2CCCCC2)nc1-c1cccs1
    -16.8, -5.4, -4.3%, 9.7%, ?, ·
CCOC(=O)c1c(N)sc(C(=O)Nc2ccc3c(c2)OCO3)c1C
    -8.2, -2.8, -16.1%, 0.0%, -19.4, -21.2
Nc1cccc(-c2cn3cccnc3n2)c1
    -10.1, 0.2, 4.9%, 6.3%[15.4 µM], ?, 2.5

Some of the entries above in another layout:
Molecule | D2 PAM | D2 agonist | gsp antag | gsp agonist | Six1-Eya2 blk | CtBP-E1A inh
Cc1c(-c2ccccc2)nc2ccccc2c1C(=O)O | -3.5 | 1.6 | 2.8% | 13.6% | 7.8 | 9.9
CC(C)c1ccc(N=C2NN=C(c3cccs3)CS2)cc1 | -11.5 | -0.5 | · | 5.7%[15.4 µM] | -18.1 | 2.8
CC(=O)N1CCC2(CC1)C/C(=N\NC(=S)Nc1ccccc1C)c1cc(O)ccc1O2 | -3.0 | -1.3 | -25.4% | 3.4% | -8.1 | -11.0
CCc1cccc(CC)c1NC(=O)C(CC)Sc1nc2ccsc2c(=O)n1CCC(=O)O (configuration not stated) | -12.5 | -0.2 | · | ? | 3.9 | 1.9
C[C@@H]1[C@H](O)C[C@@]23COC(=O)C2=CCC[C@@H]3[C@@]1(C)CC/C(=C/CO)CO | -3.0 | -4.4 | -4.2% | -19.7% | -1.9 | -1.3
COc1ccccc1N1CCN(CCCCN2C(=O)c3ccccc3C2=O)CC1 | -34.7 | -6.9 | -2.9% | · | -4.1 | -2.7
CCOc1ccccc1C(=O)Nc1ccc(S(=O)(=O)N2CCN(C)CC2)cc1 | -1.9 | -1.9 | -3.9% | -4.4% | -6.1 | 7.1
Clc1nnc(N/N=C/c2ccccc2)c2ccccc12 | -19.4 | -3.6 | -17.7% | 15.7% | ? | ?
NC(=O)N/N=C/c1sc(N2CCCCC2)nc1-c1cccs1 | -16.8 | -5.4 | -4.3% | 9.7% | ? | ·
CCOC(=O)c1c(N)sc(C(=O)Nc2ccc3c(c2)OCO3)c1C | -8.2 | -2.8 | -16.1% | 0.0% | -19.4 | -21.2
Nc1cccc(-c2cn3cccnc3n2)c1 | -10.1 | 0.2 | 4.9% | 6.3%[15.4 µM] | ? | 2.5

Later entries:
Screens in order – D2 PAM, D2 agonist, gsp antag, gsp agonist, Six1-Eya2 blk, CtBP-E1A inh
Cc1cc(NC(=O)CC2CCCC2)n(-c2nc3ccccc3[nH]2)n1
    12.1, -3.0, -5.2%, 26.3%, 2.5, 9.9
N#CCCN(C(=O)COC(=O)c1ccc2c(=O)n3c(nc2c1)CCC3)c1ccc(F)cc1
    -13.4, 0.4, -5.0%, -10.0%[15.4 µM], -4.1, -12.5
Cc1cc(N)ccc1N1CCCC1
    -4.9, 0.4, -7.6%, -9.5%, -14.3, 2.0
CCOC(=O)SC1=N/C(=C\c2ccc(N(C)C)cc2)C(=O)S1
    2.9, -5.0, -41.1%, 10.8%, -15.5, -16.9
NS(=O)(=O)c1ccc(S(=O)(=O)N(Cc2ccccc2F)CC2CCCO2)cc1 (configuration not stated)
    -8.7, -1.2, -8.0%, -42.5%, -0.7, 11.2
C=CCC1(CC=C)CCCN1C(=O)C1CCC(=O)N(Cc2ccc(Cl)cc2)C1 (configuration not stated)
    -9.0, 2.4, ·, 5.6%, 0.3, 0.1
CC(C(=O)N1CCCC1)N(C)CC(=O)Nc1cccc(F)c1 (configuration not stated)
    -4.3, 3.6, 7.0%, -9.8%, 4.3, ·
CN(C)C1=NCCN1CCc1cccc(F)c1
    -8.4, -2.6, 5.0%, -7.4%, 8.7, 5.4
CC(C)Cc1oc(C(=O)O)cc1CN1CCOCC1
    3.0, -4.0, 12.0%, -12.0%[15.4 µM], -0.7, 1.4
CCOC(=O)Cn1c(=O)n(Cc2ccc(C)cc2)c(=O)c2cccnc21
    -10.3, 0.3, -3.5%, -7.8%, 17.0, ·
COc1ccc(CCN2C(=O)CC(NNc3ccc([N+](=O)[O-])cc3)C2=O)cc1OC (configuration not stated)
    1.0, -0.4, ?, -7.6%[15.4 µM], -7.2, -3.0
CCN(CC)CCN(C(=O)c1ccc2c(c1)CCCC2)c1nc2ccc(OC)cc2s1
    -18.9, 8.1, -10.9%, ?, -20.6, 5.8
CCc1cccc(NC(=O)COC(=O)c2cc(=O)c3ccccc3o2)c1
    -30.1, -11.0, -10.3%, -18.5%, 7.3, 6.9
Cc1ccc(S(=O)(=O)N(C)C2(C)CCS(=O)(=O)C2)cc1 (configuration not stated)
    6.6, -5.6, 1.2%, 9.8%, 17.5, -0.2
CC(C)OC(=O)Cn1nc(C(c2ccccc2)c2ccccc2)oc1=O
    -2.1, -3.6, -22.1%, -2.9%, -0.5, ·
COc1ccc(S(=O)(=O)N2CCCCCC2)cc1C(=O)N(C)Cc1ccccc1F
    3.2, -3.8, 1.0%, 22.9%, -1.4, -3.3
COc1cc2c(cc1OC)CN(C(=O)c1cccc(S(=O)(=O)N3CCc4ccccc43)c1)CC2
    16.3, 6.1, -19.2%, 1.6%, -15.6, -13.3
O=S(=O)(CCNCc1ccco1)NCc1ccccc1
    -0.5, -2.6, 1.9%, ·, 1.1, 4.5
Cc1ccc(N(C(=O)c2csnn2)C(C(=O)NC2CCCCC2)c2ccccn2)cc1 (configuration not stated)
    -10.4, -5.9, 12.2%, -4.1%[15.4 µM], -9.8, -1.2
CCCC(C(=O)NC1CCCC1)N(C(=O)Cn1nnc(-c2ccc(C)o2)n1)C1CCCC1 (configuration not stated)
    -4.5, -1.7, -3.4%, 9.3%, -4.0, 3.1

Next results follow:
Screens in order – D2 PAM, D2 agonist, gsp antag, gsp agonist, Six1-Eya2 blk, CtBP-E1A inh
CCc1nn2c(=O)c(S(=O)(=O)Nc3cccc(F)c3)c(C)nc2s1
    -3.7, -2.5, -8.7%, ?, 5.3, 1.5
COc1ccc(N2CCN(CC(=O)NCc3ccccc3)CC2)cc1
    -2.4, -2.2, -12.6%, -11.1%, -5.6, 5.4
CCOc1ccc(-c2nc(CSCC(=O)NC3CCCc4ccccc43)c(C)o2)cc1 (configuration not stated)
    -10.4, 0.7, -25.3%, -10.6%, -1.9, -1.2
N#Cc1ccc(CSc2nnc(-c3ccncc3)n2CCc2ccccc2)cc1
    5.8, -3.4, 3.4%, 11.9%, -1.1, -0.9
N#Cc1ccc(OCC(=O)Nc2cc(S(=O)(=O)N3CCCCC3)ccc2N2CCCCC2)cc1
    -9.2, -7.2, 10.2%, -5.3%[15.4 µM], -10.4, 7.9
COc1ccc(OCc2cc(C(=O)N(C)Cc3cnccn3)no2)c(Cl)c1
    -6.0, -1.9, -1.0%, -5.3%, 5.1, 0.0
CCNC(=S)NNC(=O)c1cc(C2CC2)nc2ccccc12
    -29.3, -8.3, -3.2%, 19.5%, -0.6, -0.9
Cc1cccc(NNC(=S)Nc2c(C)cccc2C)c1
    4.5, -6.0, 0.5%, 17.6%[15.4 µM], -11.3, -4.8
CCc1cc2c(=O)c(-c3cnn(-c4ccccc4)c3)c(C)oc2c(CN2CCCCC2)c1O
    -6.3, -2.5, ?, 18.9%, -9.8, -12.8
CN(Cc1ccsc1)C(=O)CCc1nnc(Cc2c[nH]c3ccccc23)o1
    -11.3, -4.2, 2.2%, -1.4%[15.4 µM], -0.3, 1.7
CC(C)c1ccc(O)c(NC(=O)c2cccnc2)c1
    -3.2, -0.2, 4.3%, -4.0%, 0.4, 1.2
COc1ccc(-c2cc(=O)oc3c(C)c(OC(C)C(C)=O)ccc23)cc1 (configuration not stated)
    -13.6, -0.2, -30.7%, -2.0%, -17.4, -3.3

Filtered by structure, the compounds so far with a nitro group on carbon.
Screens in order – D2 PAM, D2 agonist, gsp antag, gsp agonist, Six1-Eya2 blk, CtBP-E1A inh
Cc1cc(C(=O)OCC(=O)NCCN2C(=O)CSC2=O)ccc1[N+](=O)[O-]
    -1.1, 6.5, -10.2%, -23.9%, -3.4, ·
COc1ccc(CCN2C(=O)CC(NNc3ccc([N+](=O)[O-])cc3)C2=O)cc1OC (configuration not stated)
    1.0, -0.4, ?, -7.6%[15.4 µM], -7.2, -3.0

Assay outcomes (PubChem)
